# GIV Gai3 FP: inhibitors of GIV peptide binding to Galpha-i3, primary screen, biochemical, fluorescence polarization, FITC-GIV GBA peptide, rat Galphai3 | 210,000 compounds, 0.42% hits | 90 min; stronger effect = lower value; scaled: aluminum fluoride 0%, vehicle 100% | percent of control (FP), % (test concentration not listed);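 active = replicate mean at 85% of control or lower, very high polarization wells dropped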;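 note: wells of about 15 µL received 100 nL stock; the first replicate is given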
# Target sequence (P08753 whole entry, looked up): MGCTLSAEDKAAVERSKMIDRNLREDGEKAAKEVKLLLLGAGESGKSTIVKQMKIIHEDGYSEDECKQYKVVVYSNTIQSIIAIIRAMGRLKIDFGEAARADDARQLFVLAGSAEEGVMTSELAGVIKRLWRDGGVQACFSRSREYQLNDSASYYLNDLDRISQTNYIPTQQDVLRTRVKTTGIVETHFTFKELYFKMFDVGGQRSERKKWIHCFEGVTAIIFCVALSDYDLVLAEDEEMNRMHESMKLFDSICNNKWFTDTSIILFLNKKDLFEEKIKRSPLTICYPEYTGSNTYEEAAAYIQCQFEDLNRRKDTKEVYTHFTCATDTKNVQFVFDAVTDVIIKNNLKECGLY
# An asterisk follows results filed as active. This is a subset. The share of hits here may be higher or lower than overall.
# Sample of the layout, 6 compounds:
SMILES,GIV Gai3 FP
CC(C)Cn1c(=O)c2sccc2n2c(=O)n(CC(N)=O)nc12,101.3
O=[N+]([O-])c1cccc(S(=O)(=O)n2c(SCc3ccccc3F)nc3ccccc32)c1,101.8
COc1ccc(N2CCN(c3nccc4ccc(C(=O)Nc5ccc6c(c5)OCO6)cc34)CC2)cc1,107.7
O=S(=O)(c1cc(-c2noc(C3CC3)n2)cs1)N1CCN(c2cccc(Cl)c2)CC1,96.5
O=c1n(Cc2c(F)cccc2Cl)nc2c(S(=O)(=O)N3CCc4ccccc4C3)cccn12,110.2
Cc1ccccc1CNC1=NCCNC12CCN(S(=O)(=O)c1cccs1)CC2,103.9

# This part in full (from the top)
SMILES,GIV Gai3 FP
CC(C)Cn1c(=O)c2sccc2n2c(=O)n(CC(N)=O)nc12,101.3
O=[N+]([O-])c1cccc(S(=O)(=O)n2c(SCc3ccccc3F)nc3ccccc32)c1,101.8
COc1ccc(N2CCN(c3nccc4ccc(C(=O)Nc5ccc6c(c5)OCO6)cc34)CC2)cc1,107.7
O=S(=O)(c1cc(-c2noc(C3CC3)n2)cs1)N1CCN(c2cccc(Cl)c2)CC1,96.5
O=c1n(Cc2c(F)cccc2Cl)nc2c(S(=O)(=O)N3CCc4ccccc4C3)cccn12,110.2
Cc1ccccc1CNC1=NCCNC12CCN(S(=O)(=O)c1cccs1)CC2,103.9
Cc1ccc(OCCCC(=O)Nc2ccc(S(=O)(=O)Nc3nc(C)cc(C)n3)cc2)cc1,102.3
COc1ccc(Cl)cc1-n1c(=S)sc2c(=O)[nH]c(SCc3cc(=O)n4cc(Cl)ccc4n3)nc21,109.0
CCOC(=O)c1[nH]c(=O)[nH]c1CSc1nnc(SCc2[nH]c(=O)[nH]c2C(=O)OCC)s1,117.7
CCn1c(N2CCCC(C(=O)NCCCN3CCC(N4CCCCC4)CC3)C2)cc(=O)n(C)c1=O (centres undefined),107.5
O=C(NCCCN1CCN(c2ccccc2F)CC1)C1CCCc2c1[nH]c1ccccc21 (centres undefined),102.2
COCCNC(=O)c1ccc(N2CC3CC(C2)c2cccc(=O)n2C3)c(NC(=O)c2cc(OC)c(OC)c(OC)c2)c1 (centres undefined),116.6
O=C(OCC(=O)c1cccs1)c1ccc(N2C(=O)C3C4C=CC(C5CC45)C3C2=O)cc1 (centres undefined),105.7
Clc1cccc2nnc(-c3ccc(Br)cc3)n12,107.5
CCOC(=O)c1ccccc1NC(=O)CSc1c(C(C)C)cnc2c1c(=O)n(C)c(=O)n2C,104.2
COc1ccc(C2=NN(C(=O)CSc3nnc(CNC(=O)c4cccc(F)c4)n3C)C(c3cccc(OC)c3OC)C2)cc1 (centres undefined),114.0
COc1ccc(-c2[nH]nc3c2C(c2cccc(OC)c2OC(=O)N2CCOCC2)C(C#N)=C(N)O3)cc1 (centres undefined),99.2
Cc1ccc(NC(=O)N2CCN(C(=O)c3nsc4ccccc34)CC2)cc1Cl,101.2
CCn1ccc(C(=O)N2CCCC2c2cc(C(C)C)no2)n1 (centres undefined),94.7
CCOC(=O)C1=C(N)n2c(s/c(=C\c3cccnc3)c2=O)=C(C(=O)OCC)C1c1cccnc1 (centres undefined),112.7
Fc1ccc(-c2noc(C3CCCCN3)n2)cc1 (centres undefined),105.7
CC(=O)Oc1cccc(C2C3=C(CC(c4ccccc4)CC3=O)Nc3ccccc3N2C(C)=O)c1 (centres undefined),100.1
CN(Cc1ccsc1)C(=O)C1CCC1,101.3
O=C(CSc1nnc2ccc(-c3ccncc3)nn12)NC1CCCC1,106.0
COCCNC1=NCCNC12CCN(S(=O)(=O)c1ccc(C(C)C)cc1)CC2,106.1

# Arranged by molar mass (falling): part of the list above.
SMILES,GIV Gai3 FP
CCOC(=O)c1[nH]c(=O)[nH]c1CSc1nnc(SCc2[nH]c(=O)[nH]c2C(=O)OCC)s1,117.7
CCOC(=O)c1ccccc1NC(=O)CSc1c(C(C)C)cnc2c1c(=O)n(C)c(=O)n2C,104.2
O=C(CSc1nnc2ccc(-c3ccncc3)nn12)NC1CCCC1,106.0

# The listing picks up, starting 2 compounds before the break.
SMILES,GIV Gai3 FP
O=C(CSc1nnc2ccc(-c3ccncc3)nn12)NC1CCCC1,106.0
COCCNC1=NCCNC12CCN(S(=O)(=O)c1ccc(C(C)C)cc1)CC2,106.1
C=CCNc1nc(NCC(=O)OCC)nc(NCC(=O)OCC)n1,111.4
Cc1ccc(N2NC3(CC(C)CC(C)(C)C3)NC2=S)cc1 (centres undefined),103.9
Cc1cc(N2CCCC2)nc(N2CCN(S(=O)(=O)c3ccc(Br)cc3)CC2)n1,100.2
Nc1c(C(=O)NCc2ccccc2)nsc1C(=O)NCc1ccccn1,99.7
c1cncc(-c2nnc(C3CCCC3)o2)c1,100.6
O=C1c2ccc(N3CCOCC3)c3c(N4CCOCC4)ccc(c23)C(=O)N1c1ccccc1,105.9
COc1ccc(/C=C2/SC(=Nc3cccc(C)c3)NC2=O)cc1OC,110.9
Cc1cccc(CNC(=O)C(C)Oc2ccc(-c3cnc4ccccc4n3)cc2)c1 (centres undefined),102.3
CC1CCN(S(=O)(=O)c2nn(C)cc2C(=O)NCCN2CCOCC2)CC1,105.0
CN1CCN(c2ncncc2N2CCC(C(=O)NCCC3=CCCCC3)CC2)CC1,107.9
COc1cc(C2CC(=O)Nc3c2ccc2ccccc32)c(Br)c(OC)c1OC (centres undefined),113.7
CCC(=O)Nc1cccnc1-c1ccc(C(=O)Nc2cc(OC)cc(OC)c2)cc1,107.1
O=C(NCCCN1CCN(c2ccc(F)cc2)CC1)c1csc(-c2ccncc2)n1,108.9
COc1ccc(Cc2nc3c4c(-c5ccccc5)c(-c5ccccc5)oc4ncn3n2)cc1OC,104.7
CCOc1ccc(-c2nn(-c3ccccc3)cc2C2C(C(=O)OC)=C(C)NC(C)=C2C(=O)OC)cc1[N+](=O)[O-],110.8
Cc1nc(N2CCN(c3ccc([N+](=O)[O-])cc3)CC2)c2c3c(sc2n1)CCC3,116.8
CCOc1ccc(-c2cc3cc(OC)c(OC)cc3c(Cc3ccccc3)n2)cc1,106.9
Cc1[nH]n(-c2ccccc2)c(=O)c1C(c1cc(Br)cc(Cl)c1O)c1c(C)[nH]n(-c2ccccc2)c1=O,110.5
Cc1ccc(C)c(S(=O)(=O)N2C[C@H]3CN(S(=O)(=O)c4ccccc4)C[C@@H](C2)O3)c1,99.7
COc1ccc(/C=C2\Oc3ccc4c(C)cc(=O)oc4c3C2=O)cc1Br,120.2
CCc1onc(C)c1C1CCCN1Cc1ccc(C)c(C)c1 (centres undefined),111.3
O=S(=O)(Nc1ccccc1O)c1cc(-c2nnc(-c3ccccc3)o2)ccc1F,103.6
CC(C)CCOC(=O)c1ccc2c3c(onc13)-c1ccccc1C2=O,116.3
COCCn1cc(CCNC(=O)Nc2cc(F)c(F)c(F)c2)c2cccnc21,101.1
Clc1ccc(-c2noc(Cc3nc(-c4ccccc4)cs3)n2)cc1,127.8
SMILES,GIV Gai3 FP
COc1ccc(C2c3c(-c4ccccc4)n[nH]c3C(=O)N2c2ccc(Cl)cc2)cc1 (centres undefined),105.2
COc1ccc(C2(CNCC(N)=O)CCCC2)cc1OC,114.2
Cc1nc(N2CCOCC2)c2c(C)c(C(=O)N3CCN(c4ccc([N+](=O)[O-])cc4)CC3)sc2n1,105.9
CCOC(=O)C1CCN(c2ncnc3c2c(-c2ccccc2)cn3-c2ccc(OCC)cc2)CC1,105.1
Cc1cccc(CSc2nnc3c(S(=O)(=O)N4CCCCC4)cccn23)c1,99.5
C=CCN1/C(=C/C=C/c2n(C/C=C\S(=O)(=O)[O-])c3cc(C(=O)OCC)ccc3[n+]2CC)N(CC)c2ccc(C(=O)OCC)cc21,135.8
Cc1cc(C)cc(NC(=O)Nc2ccc(-c3nnc(-c4ccccc4)o3)cc2)c1,105.7
N#CC1=C(N)C(C#N)(C#N)C(c2ccccc2F)C2CCCC=C12 (centres undefined),126.6
CC1=C(C(=O)Nc2ccccc2)C(c2ccncc2)C(C#N)=C(SCC(=O)Nc2ccc(Cl)cc2)N1 (centres undefined),107.8
O=S(=O)(Nc1ccccc1-c1ccc2ccccc2n1)c1ccc(Cl)cc1,105.1
CCN(c1ccccc1)S(=O)(=O)c1ccc(F)c(C(=O)Nc2ccc(Cl)cc2)c1,98.8
O=C(Cn1c(=O)c(CCC(=O)NC2CCCC2)nc2ccccc21)Nc1ccc(F)cc1,99.8
COc1ccc(C(=O)N2c3cc(CNC(=O)c4cccnc4)ccc3CC2C)cc1 (centres undefined),108.5
CCOC(=O)C1CCN(CN2C(=O)C3(SCC(=O)N3c3ccc(C)cc3)c3ccccc32)CC1 (centres undefined),122.0
COc1ccc(/C(C)=N/OCc2nc3c4c(-c5ccccc5)c(-c5ccccc5)oc4ncn3n2)cc1OC,109.2
COc1ccc(CCNC(=O)CSc2nnc3sc4ccccc4n23)cc1OC,100.3
COc1ccc(OCC(=O)N2CCCC(C)(C(=O)NCc3cccc(F)c3)C2)cc1 (centres undefined),105.5
COCCCNC(=O)CC1CCN(S(=O)(=O)c2cccs2)CC1,114.4
CCCOC1OC(=O)c2c1ccc(OC)c2OC (centres undefined),107.6
Cc1ccc(C(c2c(C)n(C)n(-c3ccccc3)c2=O)c2c(C)n(C)n(-c3ccccc3)c2=O)cc1,105.4
COc1cccc(-c2noc(CSc3nc4cc(-c5ccccc5)sc4c(=O)n3C)n2)c1,99.7
Cc1noc2ncnc(Nc3ccc(F)cc3F)c12,107.1
CCSc1nc2ccc(NS(=O)(=O)c3ccc(F)c(C)c3)cc2s1,101.3
CCOc1cc(CN2CCCC2c2cc(C(C)C)no2)ccc1O (centres undefined),104.7
Cc1sc(S(=O)(=O)N2CCCC2)cc1NC(=O)C1CC(=O)N(c2cccc(Cl)c2)C1 (centres undefined),105.6
SMILES,GIV Gai3 FP
COC(=O)c1c(C(C)(C)C)oc2c1cc(NS(=O)(=O)c1ccc(OC)cc1)c1ccccc12,119.2
CCOc1cc(C2Nc3ccc4ccccc4c3C3=C2C(=O)CCC3)cc(Br)c1O (centres undefined),101.4
CN1C(=O)N(C)C2(c3ccccc3)Nn3c(s/c(=C\C=C/c4ccc([N+](=O)[O-])o4)c3=O)=NC12c1ccccc1 (centres undefined),121.5
O=C(CCc1nc(-c2ccc(N3CCCC3)cc2)no1)NCCC1=CCCCC1,105.8
O=C(Nc1ccc(-c2nnc(-c3ccccc3)o2)cc1)Nc1ccccc1Cl,103.8
O=C(CN1C(=O)CC(c2ccc(F)cc2)=Nc2cccnc21)NCc1ccccc1Cl,108.1
Cc1ccccc1Nc1nc(C2(C)CC3(CC(C)(C)OC3=O)C(=O)O2)cs1 (centres undefined),105.5
CC(=O)Nc1cccc(N=Cc2c(C)[nH]n(-c3ccc(F)cc3)c2=O)c1,119.8
Cc1cccc(-n2nc3c(c2NC(=O)c2ccc(C(=O)c4ccccc4)cc2)CS(=O)(=O)C3)c1C,110.5
Cc1cc(Sc2ccc(NC(=O)Nc3ccc(F)cc3F)cc2)n2ncnc2n1,106.2
CCc1cccc(NS(=O)(=O)c2c(C)sc(C)c2-c2cc(C)[nH]n2)c1,102.6
C=CCOC(=O)C1=C(C)NC(SCC(N)=O)=C(C#N)C1c1cccs1 (centres undefined),105.0
O=C(NC1CCCCC1)C1CCCN(c2ncc(-c3cccc(F)c3)cn2)C1 (centres undefined),106.1
Cc1ccc(NC(=O)C2CC(O)CN2C(=O)Oc2ccccc2)cc1C (centres undefined),105.8
O=S(=O)(c1cc(-c2nnc(C3CCC3)o2)co1)N1CCN(c2ccccc2)CC1,98.9
O=C(CN1c2ccccc2NC2=C(C(=O)CCC2)C1c1cccs1)NC1CCCCC1 (centres undefined),103.9
CCc1ccc(N/C(SCc2ccccc2C)=C(/C#N)C(N)=O)cc1,104.7
CCOc1ccc2nc(-n3nc(C)c4c3NC(=O)CC4c3cc(Br)cs3)sc2c1 (centres undefined),102.7
CCN1C(=O)/C(=C/c2ccc(-c3cccc(Cl)c3C)o2)N(CC)C1=S,103.4
c1cc2nncn2nc1NC1CCCC1,103.4
Cc1ccc(NC(=O)C(NC(=O)c2ccc(C)cc2)C23CC4CC(CC(C4)C2)C3)cc1 (centres undefined),106.5
CN(C)c1cc(OC2CCN(C(=O)c3cccn3C)C2)ncn1 (centres undefined),100.7
Cc1cc(C2CCCN2C(=O)NCCC(C)C)no1 (centres undefined),105.4
O=C(N1CCN(c2nnc3ccc(Cl)cn23)CC1)C1(c2ccccc2)CC1,101.9
CCCOc1ccc(C2CC(=O)Nc3c2cnn3-c2ccc3nnc(C)n3n2)cc1 (centres undefined),101.7
SMILES,GIV Gai3 FP
COc1cc(C2Nc3ccc(F)cc3[C@H]3OCCC[C@@H]23)cc(Cl)c1OC (some centres undefined),98.5
Cc1ccc2nc(-c3ccc(NC(=O)c4c(O)c5ccccc5[nH]c4=O)cc3)sc2c1,102.7
Cn1c(=O)c(=O)n(CC(=O)N2CCCCC2)c2cccnc21,98.5
Cc1c(C(=O)O)sc2ncnc(NCCc3ccsc3)c12,181.2
N#Cc1cc2c(N)c(C(=O)Nc3ccccc3Br)sc2nc1N,106.6
Cc1cccc(-c2nc(C3CCN(C(=O)c4ccc(Br)cc4)CC3)no2)c1,101.5
COc1ccc(NC(=O)C2=C(C)NC(=O)NC2c2ccccc2Cl)cc1 (centres undefined),99.4
COc1ccc(-n2c(/C=C/c3ccccc3F)nc3cc(OC)c(OC)cc3c2=O)cc1,107.7
COc1ccc(C2=NN3C(C2)c2cc(Cl)ccc2OC3c2ccccc2Cl)cc1 (centres undefined),105.7
Cc1nc(-c2cccc(-c3noc(C(=O)NCCC4=CCCCC4)n3)c2)cs1,102.3
COc1cc(C2C=C(Nc3ccccc3)C(=O)N2c2ccccc2)ccc1O (centres undefined),115.9
O=C1N/C(=N\c2ccccn2)SC1Cc1cccc(Cl)c1Cl (centres undefined),101.3
COc1cc(OC)c(NC(=O)CSc2nc3ccccc3n2S(C)(=O)=O)cc1Cl,111.3
CCCn1c(=O)c(-c2ccc(C(=O)NCC3CCCO3)cc2)nc2ccccc21 (centres undefined),104.3
